Assay outcomes (PubChem BioAssay)
T cruzi inh: inhibitors of intracellular T. cruzi growth, primary screen, luminescence, NIH3T3 host cells; T. cruzi beta-gal in NIH3T3, 90 h; AID 1885, 2009; hit rate 1.4% among 300,000; inhibition, % (test concentration not listed);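 active means mean inhibition across valid replicates above about 55%, limit read from the data; inconclusive means mean below that limit but half or more replicates reach it; inactive means mean below it, under half of replicates reach it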;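 further: signal also drops with host cell toxicity which is not excluded here; 0% = plate median of DMSO wells and 100% = zero luminescence signal; higher percent means less beta-gal luminescence so fewer parasites; stock transfer was 50 nL into about 50 µL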
B2AR ag: beta2AR agonists driving receptor internalization, primary screen, cell-based, FAP fluorogen, flow cytometry. Beta-2 adrenergic receptor (Homo sapiens), P07550. Am2.2-beta2AR cells; reference of the scale not given here. response, % (test concentration not listed). hit rate 0.43% among 340,000. AID 504454, 2011;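 active means response above a set limit, near 3 SD of response in nonfluorescent compounds, cut at about 42% in these data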;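 further: stock transfer was 100 nL into about 11 µL; a reference agonist was the positive control; negative values mostly stem from fluorescent compounds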
Target sequence (P07550 whole entry, looked up): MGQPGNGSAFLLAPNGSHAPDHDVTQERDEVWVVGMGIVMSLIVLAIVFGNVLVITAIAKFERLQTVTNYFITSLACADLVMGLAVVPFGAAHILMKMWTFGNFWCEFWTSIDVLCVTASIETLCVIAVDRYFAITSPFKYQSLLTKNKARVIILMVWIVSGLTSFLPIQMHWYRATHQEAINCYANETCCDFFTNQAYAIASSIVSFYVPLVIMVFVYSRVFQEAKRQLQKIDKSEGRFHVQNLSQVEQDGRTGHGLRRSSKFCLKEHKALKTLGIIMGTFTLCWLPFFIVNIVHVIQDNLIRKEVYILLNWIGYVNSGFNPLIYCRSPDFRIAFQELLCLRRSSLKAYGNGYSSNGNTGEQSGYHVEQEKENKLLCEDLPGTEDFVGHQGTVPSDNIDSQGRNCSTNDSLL
A1 inh: caspase 3/7 activation in MEF A1-2A-BIM cells, primary screen, A1 inhibitor project, cell-based, luminescence, HTS; Caspase-Glo 3/7 luminescence, 3 h; percent of clofoctol response, vehicle zero; caspase activation, % (concentration not given with the values); hit rate 0.066% among 330,000; AID 2462, 2010;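 active means over half of replicate activation scores above 10%, or exactly half above 10 with the replicate mean above 10; inconclusive means replicate mean below 10 yet half the replicates above 10; inactive means over half of replicates below 10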;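 further: wells of about 30 µL received 50 nL stock; many hits fall short of the cut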
Calb FLC: C. albicans growth inhibition with fluconazole, primary screen, CaCi-2 strain, Alamar Blue fluorescence | C. albicans CaCi-2 (fluconazole-resistant clinical isolate) + fluconazole, 48 h | growth inhibition, % (test concentration not listed) | hit rate 0.57% among 300,000;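 active means most replicates above 75%; inconclusive means exactly half above 75%; inactive means most below 75%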;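 further: all wells also contain fluconazole at 8 µg/ml as a sub-toxic cotreatment; 0% = median of DMSO wells and 100% = median of geldanamycin control wells; wells of about 8 µL received 7.5 nL stock; the first replicate is given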
Beta cell apopt: inhibitors of cytokine-induced beta cell apoptosis, primary screen, luminescence; AID 435005, 2010; hit rate 0.8% among 300,000; INS-1E cytokine-induced death, ATP luminescence, 48 h; percent of positive-control rescue, neutral wells zero; protection from apoptosis, % (concentration not given with the values);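 active means all replicates at 75% or more, or half of them and the mean; inconclusive means half reach 75% but not the mean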;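 further: 0% = cytokine-treated negative control wells and 100% = positive control rescue; higher means more ATP so stronger rescue from cytokine killing; wells of about 40 µL received 100 nL stock; the first replicate is given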
ALR inh: inhibitors of human ALR sulfhydryl oxidase, primary screen, biochemical, H2O2 detection, HRP-luminol luminescence, single point; purified ALR, DTT oxidation; inhibition, % (no concentration beside the values); hit rate 3.8% among 290,000; AID 485317, 2010;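 active means mean and each replicate at 75% or more; inconclusive means only one of the two met; inactive means neither met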;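 further: stock transfer was 7.5 nL into about 7.5 µL; 0% = neutral wells and 100% = wells with inactivated enzyme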
Target sequence (P55789 whole entry, looked up): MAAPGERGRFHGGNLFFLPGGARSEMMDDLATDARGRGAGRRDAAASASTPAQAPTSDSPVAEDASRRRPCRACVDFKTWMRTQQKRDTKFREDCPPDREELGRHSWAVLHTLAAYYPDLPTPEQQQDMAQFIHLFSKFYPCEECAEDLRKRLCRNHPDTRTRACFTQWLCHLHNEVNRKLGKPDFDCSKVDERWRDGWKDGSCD
LANA-H2A inh: blockers of LANA interaction with H2A/H2B – biochemical, FP readout, HTS, primary screen; cell-free LANA-H2A/H2B peptide, fluorescence polarization; hit rate 0.6% among 320,000; inhibition, % (no concentration beside the values); in the data active means inhibition mostly above about 10%, no sharp cut-off; inactive means mostly below about 6.7%;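 further: stock transfer was 7.5 nL into about 10 µL; 0% = median of vehicle wells and 100% = median of positive control wells; one replicate is shown; the record names a cut of 25% in any replicate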
Ecoli rRNA inh: reduced GFP signal of wild-type E. coli, primary screen, bacterial rRNA inhibitor project, GFP/RFP fluorescence, OD600, single point; hit rate 1.6% among 350,000; AID 720706, 2013; E. coli WT GFP vs humanized-ribosome RFP mutants, 24 h; stronger effect = lower value; DMSO median 0, no signal -100; GFP signal change (wild-type ribosome), % (test concentration not listed);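 active means significant combined selectivity score with lowered wild-type GFP, culture density cut under 30%, mutant RFP and density less affected; inactive means any of these conditions unmet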; further: one replicate is shown; some compounds called inactive have numbers as strong as hits
Ecoli rRNA inh OD600: second read-out of Ecoli rRNA inh, no call of its own (marks repeat the call); OD600 change, %; measured here: OD600 growth;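 optical density of the mix in the first replicate; 0 = DMSO median and -100 = no signal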
Ecoli rRNA inh RFP: also measured in Ecoli rRNA inh; calls as there; RFP signal change, %; measured here: RFP humanized mutant strains;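 first replicate; 0 = DMSO median and -100 = no signal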
The depositor's hits bear a star; ? = inconclusive; nt = not tested or not shown. Some of the compounds tested; rates above refer to the full screens.

SMILES	T cruzi inh	B2AR ag	A1 inh	Calb FLC	Beta cell apopt	ALR inh	LANA-H2A inh	Ecoli rRNA inh	Ecoli rRNA inh OD600	Ecoli rRNA inh RFP
CC(C1CC1)N(Cc1ccccc1)C(=S)Nc1ccccc1Cl (configuration not stated)	-18	5	0.0	9	-11	-6	1.8	-35	-66	1.6
COc1ccccc1C(=O)NCC(=O)N/N=C/c1cn[nH]c1-c1ccccc1	-16	-4	0.3	-15	1	-3	6.8	5	9	2.6
Cn1cc([N+](=O)[O-])c(C(=O)NC2CCCCCC2)n1	-6	9	-1.4	-5	-5	-18	-1.6	16	16	3.3
O=S(=O)(c1ccc(Br)cc1)N1CCN(c2ccc3nnc(-c4ccccc4)n3n2)CC1	32	-13	0.1	-5	-3	nt	0.1	-6	2	6.2
CCC(=O)N1CCc2cc(S(=O)(=O)CCC(=O)NCc3ccccc3OC)ccc21	-5	-10	-2.1	-10	-1	-9	5.6	9	6	-1.3
O=C(c1cc(C2CC2)nc2ccccc12)N1N=C(C(F)F)CC1(O)C(F)F (configuration not stated)	-7	3	-0.9	3	26	-4	-4.4	nt	nt	nt
COc1ccc(NC(=S)Nc2ccc(OCc3ccccc3)cc2)cc1OC	-5	6	0.1	-5	0	5	-3.2	nt	nt	nt
CCCC(=O)Nc1ccc(C(=O)NNC(=O)c2ccccc2Br)cc1	0	1	-1.1	-12	-2	3	-0.9	nt	nt	nt
COc1ccc(/C=C(/NC(=O)c2cccc([N+](=O)[O-])c2)C(=O)O)cc1OC	10	6	1.1	-18	0	8	1.6	18	12	1.7
C[C@@H]1CN(S(=O)(=O)c2c(F)cccc2F)CCN1S(=O)(=O)c1ccc2c(c1)OCCO2	nt	0	0.0	nt	-10	9	0.7	-12	1	-1.1
COc1ccc(-c2noc(CSc3ccc(C)cc3)n2)cc1	-8	7	0.3	-63	-5	-3	-3.6	nt	nt	nt
COc1ccc(-c2ccc(C#N)c(SCC(=O)NCc3ccco3)n2)cc1OC	-1	3	0.4	-6	6	6	-0.4	1	-2	-0.2
Cc1[nH]c2ccccc2c1C(=O)C(=O)NCCC1=CCCCC1	11	-10	0.4	-8	5	2	-5.1	nt	nt	nt
Cc1ccccc1N1C(=O)CC(N(O)c2ccccc2)C1=O (configuration not stated)	-19	1	1.7	-5	4	71	6.4	nt	nt	nt
O=C(CCc1ccccc1)Nc1ccc(NC(=O)c2ccco2)cc1	13	2	0.4	29	4	2	0.2	-10	-2	3.0
CCCCCCOc1ccc(OC(=O)c2cccnc2)cc1	21	-12	2.0	-11	10	-4	-1.2	nt	nt	nt
Cc1ccc(-c2csc(NC(=O)C[n+]3cc(-c4ccccc4)n4c3CCC4)n2)cc1	7	-5	0.0	3	10	7	1.3	-55	-78	-14
Nc1n[nH]c(C2CC2)c1N=Nc1ccc(Cl)cc1	-1	0	0.2	53	-13	-1	3.5	-9	-11	0.3
O=C(O)COc1ccc(NC(=O)c2ccco2)cc1	-19	9	1.1	8	4	-14	-0.4	nt	nt	nt
N#CC(=C1CCCC1)c1nc(-c2cc3ccccc3oc2=O)cs1	23	-7	-1.1	-8	7	-5	1.5	-7	-9	1.0
COc1ccc(OC)c(CCNC(=O)C2CCN(c3ncnc4c3nc3n4CCCCC3)CC2)c1	7	6	-0.8	-4	7	-4	1.3	22	-4	1.0
O=C(c1nc2nc(-c3ccc(Cl)cc3)cc(C(F)(F)F)n2n1)N1CCOCC1	-21	-4	1.0	16	1	3	6.2	nt	nt	nt
CCc1cc(C(=O)N2CCN(c3ccccn3)CC2)sc1C	0	1	-0.4	-2	-6	5	-3.5	-24	-23	-0.4
CC(C)Oc1ccc(S(=O)(=O)N2CCCCC2)cc1NC(=O)C1CCC1	4	7	-0.1	nt	-3	-20	-4.1	-6	-14	3.3
CCOC(=O)N1CCN(CC(O)COc2ccc(CC)cc2)CC1 (configuration not stated)	6	-11	0.2	-4	-9	2	-0.4	6	7	3.7
SMILES	T cruzi inh	B2AR ag	A1 inh	Calb FLC	Beta cell apopt	ALR inh	LANA-H2A inh	Ecoli rRNA inh	Ecoli rRNA inh OD600	Ecoli rRNA inh RFP
Cc1ccccc1NS(=O)(=O)c1cc(C(=O)NCc2ccncc2)ccc1Cl	1	4	0.3	-1	-1	-2	3.3	-2	0	-1.0
Cc1ccc(/C=C/C(=O)O)cc1S(=O)(=O)N1CCCc2ccccc21	4	-2	0.7	4	-10	3	1.0	-11	-18	6.7
COc1ccc(C(C(=O)NC2CCCCC2)N(C(=O)c2csnn2)C2CC2)cc1 (configuration not stated)	-6	4	0.2	10	4	1	2.1	5	3	-4.6
CCN(CC(=O)Nc1ccc([N+](=O)[O-])cc1OC)c1ccccc1	12	-6	0.3	14	-2	4	-3.1	nt	nt	nt
COc1cc(OC)cc(C(=O)N2CCN(C(=O)c3ccc(OC)c(OC)c3)CC2)c1	-5	1	-0.5	0	-1	1	1.0	nt	nt	nt
CCOc1ccc(S(=O)(=O)N2CCN(C(=O)CN3C(=O)NC(C)(C)C3=O)CC2)cc1	nt	-1	-0.9	nt	-3	nt	-10	6	5	-1.0
O=C(CN1CCN(CCC(=O)Nc2ccccc2F)CC1)Nc1ccc(F)cc1	nt	1	-0.9	nt	1	-24	-7.1	nt	nt	nt
Cc1nc(NC(=O)CSc2nnc(-c3ccccc3)c(-c3ccccc3)n2)c(Cl)cc1Cl	6	48*	-0.5	6	1	0	2.3	nt	nt	nt
COc1ccc(Nc2nc(N)nc(CCl)n2)cc1	52	-3	-0.4	-11	1	2	3.0	17	14	1.0
O=C(COC(=O)CCNS(=O)(=O)c1ccc(Cl)cc1)NCc1ccco1	-3	9	-1.1	0	-16	-4	1.1	nt	nt	nt
CC1Cc2cc(S(=O)(=O)N3CCC(C(=O)Nc4ccccn4)CC3)ccc2N1C(=O)C1CCC1 (configuration not stated)	-9	-19	0.0	-9	7	2	0.1	-18	-18	-5.9
O=C1CCCN2N=C(SCC(=O)Nc3ccc(Cl)cc3)SC2=N1	7	-7	-0.6	-1	2	nt	1.4	4	8	0.2
Cc1ccc(S(=O)(=O)NNC(=O)C(=O)NNS(=O)(=O)c2ccc(C)cc2)cc1	-12	-1	0.5	-9	-6	14	-1.5	15	8	-1.2
Cc1nnc(SCC(=O)NC2CCCCCC2)n1C	-15	-2	0.6	nt	3	-5	0.5	21	16	1.6
COc1ccc(OC)c(S(=O)(=O)N2Cc3ccccc3CC2C(=O)Nc2nccs2)c1 (configuration not stated)	nt	-3	0.5	5	12	nt	4.2	nt	nt	nt
O=C(/C=C/c1ccccc1)Nc1ccc(N2CCCCC2)cc1	2	4	-2.1	-2	1	9	2.9	0	-1	-4.7
Cc1ccc(N2CSC3=C(C#N)C(c4cccs4)CC(=O)N3C2)cc1 (configuration not stated)	-7	6	0.0	4	-2	-14	1.2	3	9	3.3
CCc1ccc2[nH]c(=O)c(CN(CCO)C(=O)NCc3ccccc3)cc2c1	10	2	0.3	-9	3	-7	1.1	nt	nt	nt
Cc1cc[n+](-c2[nH]c(=O)sc2/C=N/NC(=O)c2ccccc2[O-])cc1C	3	3	0.4	?	-5	8	2.5	9	5	-3.0
CCOc1ccc2[nH]cc(S(=O)(=O)c3ccc(C)cc3)c(=O)c2c1	-2	12	0.5	-7	nt	-1	2.7	4	6	2.2
COc1cccc(C(C#N)N2CCOCC2)c1 (configuration not stated)	4	2	0.1	4	0	1	-7.9	nt	nt	nt
Cc1occc1-c1nnc(SCC(=O)NC(C)(C)C)n1CC(C)C	0	-2	0.2	5	-10	0	2.2	3	0	1.2
Cc1ccc2oc(C(Cl)(Cl)Cl)cc(=O)c2c1	4	21	-1.0	35	12	-1	-2.0	-8	-5	1.2
Cn1cccc1C(=O)/C(C#N)=C/c1ccc(F)cc1	0	27	0.5	-9	nt	nt	0.1	1	8	5.0
COc1ccc(NC(=O)CSc2nc(O)cc(=O)n2-c2ccccc2OC)cc1	2	-6	-1.0	0	-3	98*	-3.5	9	30	3.5
COc1ccc(Cl)cc1NC(=O)COC(=O)CCCN1C(=O)c2ccccc2C1=O	15	14	?	5	-2	0	2.1	-2	-8	-1.4
O=C(COc1ccc2ccccc2c1)Nc1ccncc1	-22	-3	-0.6	5	-8	nt	-0.6	9	5	0.2
CCN1CCCC1CNC(=O)CCc1nc(-c2ccc(C)cc2)no1 (configuration not stated)	nt	-2	-0.4	1	0	-1	-7.6	nt	nt	nt

One compound at a time, as listed above:
Profile of Cc1[nH]c2ccccc2c1C(=O)C(=O)NCCC1=CCCCC1 → T cruzi inh = 11; B2AR ag = -10; A1 inh = 0.4; Calb FLC = -8; Beta cell apopt = 5; ALR inh = 2; LANA-H2A inh = -5.1; Ecoli rRNA inh = nt; Ecoli rRNA inh OD600 = nt; Ecoli rRNA inh RFP = nt
Profile of COc1ccccc1C(=O)NCC(=O)N/N=C/c1cn[nH]c1-c1ccccc1 → T cruzi inh = -16; B2AR ag = -4; A1 inh = 0.3; Calb FLC = -15; Beta cell apopt = 1; ALR inh = -3; LANA-H2A inh = 6.8; Ecoli rRNA inh = 5; Ecoli rRNA inh OD600 = 9; Ecoli rRNA inh RFP = 2.6

Quoted at random: four compounds from above, in no set order.
SMILES	T cruzi inh	B2AR ag	A1 inh	Calb FLC	Beta cell apopt	ALR inh	LANA-H2A inh	Ecoli rRNA inh	Ecoli rRNA inh OD600	Ecoli rRNA inh RFP
O=C1CCCN2N=C(SCC(=O)Nc3ccc(Cl)cc3)SC2=N1	7	-7	-0.6	-1	2	nt	1.4	4	8	0.2
CCc1ccc2[nH]c(=O)c(CN(CCO)C(=O)NCc3ccccc3)cc2c1	10	2	0.3	-9	3	-7	1.1	nt	nt	nt
Cc1ccc2oc(C(Cl)(Cl)Cl)cc(=O)c2c1	4	21	-1.0	35	12	-1	-2.0	-8	-5	1.2
Cc1ccc(/C=C/C(=O)O)cc1S(=O)(=O)N1CCCc2ccccc21	4	-2	0.7	4	-10	3	1.0	-11	-18	6.7
